# BasE inh – inhibitors of Acinetobacter baumannii siderophore enzyme BasE. 84,000 tested, 0.1% active. AID 485350. inhibition, % (test concentration not listed). purified BasE, fluorescence polarization binding displacement;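 active = both replicates above 25% with normal brightness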;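 also: 0% = negative plate control signal and 100% = positive plate control signal; stock transfer was 100 nL into about 30 µL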
# LANA-nucl inh – LANA-nucleosome interaction inhibition. FITC-LANA1-23 / chicken nucleosome fluorescence polarization; hits give low values. z-score (test concentration not listed). 51,000 tested, 0.3% active;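 active = both repeat wells score below -2 in polarization z-score versus plate sample wells, excluding overly bright wells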;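 also: 100 nL library stock added to about 30 µL; numbers are from one replicate; some results filed as inactive read as strong as hits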
#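 System – purified chicken nucleosomes with FITC-labelled LANA N-terminal peptide (1-23) · Amount – 240 nM purified chicken nucleosomes (480 nM peptide binding sites), final · Also added – 50 nM FITC-LANA1-23 probe · Medium – TEN-BT buffer, pH 7.5 · Incubation – compound with peptide–nucleosome mix 10–45 min at room temperature · Detection – fluorescence polarization, ex 480 nm, em 535 nm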
# Numbers without * were called inactive; . = no result given; & = joins results of further samples.
[1] O=C(O)C(O)C(O)C(O)C(O)C(=O)O (stereo not given) (tested in a mixture with another compound)
  BasE inh: -2.0	LANA-nucl inh: -0.24

[2] CC(C)(CO)C(O)C(=O)NCCCO (stereo not given)
  BasE inh: .	LANA-nucl inh: -0.25

[3] O=C1CSC(c2ccc3cccc(O)c3n2)N1c1ccc(Cl)cc1 (stereo not given)
  BasE inh: -1.6	LANA-nucl inh: 0.5

[4] CCCCOc1ccc(CC(=O)NO)cc1
  BasE inh: -0.2&1.9	LANA-nucl inh: 1.2&0.22

[5] CCOC(=O)NNc1nncc2ccccc12
  BasE inh: -1.4&0.2	LANA-nucl inh: -0.48&-0.3

[6] Cc1cc(=O)n(-c2ccccc2)[nH]1
  BasE inh: -2.9	LANA-nucl inh: 1.4

[7] CCCCCC(=O)O[C@]1(C(C)=O)CCC2C3CCC4=CC(=O)CC[C@]4(C)C3CC[C@@]21C (stereo not given in full)
  BasE inh: -0.1	LANA-nucl inh: -0.32&1.1

[8] CCC(=O)O[C@]1(C(=O)SCF)[C@H](C)C[C@H]2[C@@H]3C[C@H](F)C4=CC(=O)C=C[C@]4(C)[C@@]3(F)[C@@H](O)C[C@@]21C
  BasE inh: -1.9	LANA-nucl inh: -0.18&-0.21

[9] CCc1c2c(nc3ccc(OC(=O)N4CCC(N5CCCCC5)CC4)cc13)-c1cc3c(c(=O)n1C2)COC(=O)[C@]3(O)CC
  BasE inh: 1.3	LANA-nucl inh: -0.65&0.47

[10] Cc1cccc(Nc2cc(Cl)nc(SCC(=O)O)n2)c1C
  BasE inh: -2.3	LANA-nucl inh: 0.75

[11] Nc1c2c(nc3ccccc13)CCCC2O (stereo not given)
  BasE inh: .	LANA-nucl inh: -0.17

[12] COc1cc([C@H]2Oc3cc([C@H]4Oc5cc(O)cc(O)c5C(=O)[C@@H]4O)ccc3O[C@@H]2CO)ccc1O
  BasE inh: -0.4	LANA-nucl inh: 0.16

[13] CNc1c2c(nn1C)CCCC2
  BasE inh: .	LANA-nucl inh: 0.9

[14] Cc1cc(C)cc(OCC2CNC(=O)O2)c1 (stereo not given)
  BasE inh: 0.6	LANA-nucl inh: -0.47&0.083

[15] Nc1ncnc2nc[nH]c12
  BasE inh: -2.2	LANA-nucl inh: -0.033&-1.3

[16] CCn1cc(C(=O)O)c(=O)c2cc(F)c(N3CCNCC3)nc21
  BasE inh: -3.8&-0.2	LANA-nucl inh: 0.26&-0.61&0.58&-0.28

[17] CC(=O)N1CC(O)C[C@H]1C(=O)O (stereo not given in full)
  BasE inh: -0.1	LANA-nucl inh: .

[18] CCCCC1C(=O)N(c2ccccc2)N(c2ccccc2)C1=O
  BasE inh: 0.3	LANA-nucl inh: -0.32&0.21&0.31

[19] CCCCCCc1ccc(O)cc1O
  BasE inh: 2.6	LANA-nucl inh: -0.22&0.17

[20] Cc1cccc(C)c1NC(=O)C1CCCCN1C (stereo not given)
  BasE inh: 2.5	LANA-nucl inh: 0.15&1.2&-0.12

[21] CC(=O)Nc1ccc(O)cc1
  BasE inh: -0.9&2.1	LANA-nucl inh: 0.39&1.4&0.94

[22] COc1ccccc1OCCNCC(O)COc1cccc2[nH]c3ccccc3c12 (stereo not given)
  BasE inh: -2.8	LANA-nucl inh: 0.5&0.23&-0.17&1.1

[23] C=C1c2cccc(O)c2C(O)=C2C(=O)[C@]3(O)C(O)=C(C(N)=O)C(=O)[C@@H](N(C)C)[C@@H]3[C@@H](O)[C@H]12
  BasE inh: -3.2&4.0	LANA-nucl inh: -0.44&2.5&-0.12

[24] C#C[C@]1(O)CCC2C3CCC4=CC(=O)CC[C@@H]4C3CC[C@@]21CC (stereo not given in full)
  BasE inh: 1.2	LANA-nucl inh: -0.73&-0.24

[25] Cn1c(=O)c2c(ncn2CCO)n(C)c1=O
  BasE inh: 1.5	LANA-nucl inh: 0.055

# Remaining list, next part.
item	canonical_smiles	BasE inh	LANA-nucl inh
26	CC(=O)Nc1ccccc1	-1.1	-0.13&0.92
27	Nc1c2ccccc2nc2ccccc12 (tested in a mixture with another compound)	0.3	-0.44&0.16
28	CCCC[C@@H](CC)COC(=O)c1ccccc1O	.	1.1
29	COc1ccc(/C=C/C(=O)O)cc1	-1.0	.
30	NC(N)=NC(=O)Cc1c(Cl)cccc1Cl	0.0	0.35&-0.033
31	COc1ccc(CN2CCN(C(c3ccc(F)cc3)c3ccc(F)cc3)CC2)c(OC)c1OC	.	1.6&0.12
32	O=C(Nc1ccc(C(=O)O)c(O)c1)c1ccccc1	.	-0.19
33	NC(=NCc1ccccc1)NC(=O)c1nc(Cl)c(N)nc1N	-6.4&-1.6	-0.55&0.036&0.016
34	CCOc1cc2c3c(c1)c(C1=NC(=S)NC1=O)c(O)n3C(C)(C)CC2C (stereo not given)	0.2	-0.13

# A second format for some results above:
# Below each compound – BasE inh, LANA-nucl inh
18) CCCCC1C(=O)N(c2ccccc2)N(c2ccccc2)C1=O
    0.3, -0.32&0.21&0.31
19) CCCCCCc1ccc(O)cc1O
    2.6, -0.22&0.17
20) Cc1cccc(C)c1NC(=O)C1CCCCN1C (stereo not given)
    2.5, 0.15&1.2&-0.12
21) CC(=O)Nc1ccc(O)cc1
    -0.9&2.1, 0.39&1.4&0.94
22) COc1ccccc1OCCNCC(O)COc1cccc2[nH]c3ccccc3c12 (stereo not given)
    -2.8, 0.5&0.23&-0.17&1.1
23) C=C1c2cccc(O)c2C(O)=C2C(=O)[C@]3(O)C(O)=C(C(N)=O)C(=O)[C@@H](N(C)C)[C@@H]3[C@@H](O)[C@H]12
    -3.2&4.0, -0.44&2.5&-0.12
24) C#C[C@]1(O)CCC2C3CCC4=CC(=O)CC[C@@H]4C3CC[C@@]21CC (stereo not given in full)
    1.2, -0.73&-0.24
25) Cn1c(=O)c2c(ncn2CCO)n(C)c1=O
    1.5, 0.055
26) CC(=O)Nc1ccccc1
    -1.1, -0.13&0.92
27) Nc1c2ccccc2nc2ccccc12 (tested in a mixture with another compound)
    0.3, -0.44&0.16
28) CCCC[C@@H](CC)COC(=O)c1ccccc1O
    ., 1.1
29) COc1ccc(/C=C/C(=O)O)cc1
    -1.0, .
30) NC(N)=NC(=O)Cc1c(Cl)cccc1Cl
    0.0, 0.35&-0.033
31) COc1ccc(CN2CCN(C(c3ccc(F)cc3)c3ccc(F)cc3)CC2)c(OC)c1OC
    ., 1.6&0.12
32) O=C(Nc1ccc(C(=O)O)c(O)c1)c1ccccc1
    ., -0.19

# These rows are one share of the data; the hit share may differ from the screen's.
